# Screens deposited in PubChem BioAssay by National Center for Advancing Translational Sciences (NCATS).
# GLA inh pH 4.5: inhibitors of human alpha-galactosidase A at pH 4.5 | purified enzyme, 4-MU-alpha-Gal fluorescence, pH 4.5 | 230,000 tested, under 10 active | AID 1467 | activity change, negative = inhibition, % at 105 µM; inconclusive = small, poorly fitted or top-dose-only inhibition, or a rising curve; inactive = flat fitted curve, though single readings scatter; no compound was filed as active;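 also: 0% = full activity with enzyme and -100% = basal without enzyme; dose as in the result columns while the protocol names 77 µM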
# Rango dissoc inh: inhibition of RanGTP-driven Rango-importin beta dissociation; O95149+P62826; Biochemical FRET Rango-importin beta, RanGTP-induced dissociation; Potency, µM (titrated, usually from 46.1 µM), for inactives: at the top dose activity change, negative = inhibition; 340,000 tested, 0.071% active; active means falling FRET ratio curve, often poorly fitted, with flat reads before Ran was added; inconclusive means other falling curves, or compound fluorescence or quenching; inactive means flat or rising ratio curve;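 also: potency is read from the fitted curve at half-maximal effect; % of control where 0% means no effect; nearly all actives have a fitted effect of over 45% in size; -100% = wells without RanGTP and RCC1; the record marks most hits as doubtful in a second field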
#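 Compounds sat 5 min at room temperature with 0.1 uM Rango biosensor plus 0.25 uM importin beta, then FRET pre-read. RanGTP-RCC1 (0.6 uM Ran, 2mM GTP, 0.2 uM RCC1) added for 45 min, and the CFP/YFP post-read measured blocked complex dissociation.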
# miR-21 FLuc: miR-21 reporter, rising signal. HeLa miR-21 FLuc reporter, luciferase, 48 h. AID 2288. 340,000 tested, under 10 active. Potency, µM (highest dose often 38.3 µM), inactives show at the highest dose reporter change, positive = more light; active = well fitted rising curve with a large enough effect; inconclusive = small, poorly fitted or top-dose-only effect; inactive = no such curve, though single readings can be large or run the other way;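 also: % of control where 0% means no effect; miR-21 action dims this reporter so a rising signal means less miR-21 action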
#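 Using DMEM plus 10% FBS, HeLa miR-21-FLuc cells are incubated with test compounds (final up to about 40uM) for 48 hours; firefly luciferase signal is then imaged following reagent-mediated lysis.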
# Rango-impB inh: Rango-importin beta binding inhibition; Rango CFP/YFP FRET sensor + importin beta, 45 min; Potency, µM (doses to about 92.2 µM), without a hit: at the highest dose inhibition of complex formation; AID 540263; 340,000 tested, 0.031% active; Q14974; active = rising FRET ratio curve, often small or poorly fitted; inconclusive = mostly compound fluorescence or quenching in the first reads; inactive = flat curves in all reads;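 also: potency is read from the fitted curve at half-maximal effect; 0% = DMSO wells and 100% = buffer wells lacking importin beta; nearly all actives have a fitted effect of over 15% in size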
# Target sequence (Q14974 whole entry, looked up): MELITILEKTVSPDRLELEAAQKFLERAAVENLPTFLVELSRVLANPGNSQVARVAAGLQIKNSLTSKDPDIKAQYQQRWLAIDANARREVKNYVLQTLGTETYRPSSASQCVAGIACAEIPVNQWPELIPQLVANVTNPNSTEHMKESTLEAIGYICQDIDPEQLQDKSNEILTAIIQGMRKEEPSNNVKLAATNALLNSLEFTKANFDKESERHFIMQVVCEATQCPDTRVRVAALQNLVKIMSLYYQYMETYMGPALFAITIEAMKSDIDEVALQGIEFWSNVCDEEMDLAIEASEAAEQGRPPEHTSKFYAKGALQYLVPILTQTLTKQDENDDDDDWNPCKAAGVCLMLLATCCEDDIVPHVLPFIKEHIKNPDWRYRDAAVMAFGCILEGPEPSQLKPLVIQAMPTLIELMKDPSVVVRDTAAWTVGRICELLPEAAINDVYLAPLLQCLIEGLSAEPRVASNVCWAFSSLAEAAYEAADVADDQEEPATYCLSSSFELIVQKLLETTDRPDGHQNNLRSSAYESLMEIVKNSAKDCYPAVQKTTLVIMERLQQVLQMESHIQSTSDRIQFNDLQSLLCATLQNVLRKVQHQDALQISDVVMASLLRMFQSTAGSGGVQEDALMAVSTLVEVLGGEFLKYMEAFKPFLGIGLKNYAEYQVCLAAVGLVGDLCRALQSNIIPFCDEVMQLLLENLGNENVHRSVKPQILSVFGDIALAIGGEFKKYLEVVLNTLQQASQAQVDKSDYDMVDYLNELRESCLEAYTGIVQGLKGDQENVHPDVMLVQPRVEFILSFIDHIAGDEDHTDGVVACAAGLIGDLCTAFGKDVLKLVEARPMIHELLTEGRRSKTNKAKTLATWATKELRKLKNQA
#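 Inhibition scored from the CFP 486 nm/YFP 530 nm FRET ratio 45 min after adding 0.125 microM importin beta to 50 nM Rango biosensor preincubated 5 min with compound (room temperature, PBS with DTT, Tween-20, BSA). No-importin wells as positive control.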
# The depositor's hits bear a star; u = inconclusive; x = no result given.
Structure	GLA inh pH 4.5	Rango dissoc inh	miR-21 FLuc	Rango-impB inh
CCOc1cc2[nH]c(=S)n(Cc3ccc(C(=O)NCCCN(CC)CC)cc3)c(=O)c2cc1OCC	x	-13.0%	-9.9%	3.3%
COCCN(C(=O)/C=C/c1cccc([N+](=O)[O-])c1)c1c(N)n(Cc2ccccc2)c(=O)[nH]c1=O	0.2	12.3%	-2.7%	4.2%
CCc1ccc(OCC(=O)NNC(=O)c2cc(S(=O)(=O)N3CCOCC3)ccc2N2CCCC2)cc1	x	5.0%	x	2.1%
Cc1cccc(-c2onc3ccc(C(=O)/C=C/N(C)C)cc23)c1	x	3.5%	5.2%	0.1%
NC(=S)Cc1nc(-c2ccc(Cl)cc2)cs1	3.2	-8.8%	2.9%	-0.1%
O=C(N/N=C/c1cccnc1)c1ccc(NC(=O)c2ccc(F)cc2)cc1	x	0.0%	5.2%	3.0%
Cc1nn(-c2ccccc2)c(Cl)c1/C=N/NC(=O)c1ccco1	5.5	14.3%	-62.9%	7.6%
CSc1nc2ncc3c(n2n1)CC1c2ccccc2CCN1C3=O (stereo not drawn)	u	-15.3%	-8.0%	u
Cc1c2c(=O)n(-c3nc4ccccc4s3)nc-2cc(O)n1Cc1ccccc1	-0.3	-10.6%	-11.2%	-3.9%
O=C(Nc1ccc(N2CCCC2)c(Cl)c1)c1ccc([N+](=O)[O-])o1	4.9	4.5%	-30.9%	-0.6%
Cc1nnc(SCC(=O)N/N=C/c2cn(-c3ccccc3)nc2-c2ccccc2)n1-c1ccccc1	8.8	-3.0%	-19.1%	2.2%
COc1ccc(Cl)cc1NC(=O)CNc1ccccc1F	-27.2	1.4%	-7.9%	-2.9%
CCC(Cc1ccccc1)NS(=O)(=O)c1ccc2c(c1)NC(=O)C(C)S2 (stereo not drawn)	x	3.5%	17.2%	0.0%
O=C(NCCO)C(=O)Nc1cc2c3c(c1)CCN3C(=O)CC2	x	4.4%	1.1%	0.4%
COc1ccccc1CNCc1cc(=O)oc2c(C)c(C)ccc12	x	-8.7%	14.2%	u
CCOC(=O)c1sc(NC(=O)C2CC=CCC2C(=O)O)nc1C (stereo not drawn)	2.6	2.1%	-6.7%	-2.6%
O=C(NC1CC1)C1CCN(C2CCN(C(=O)/C=C/c3ccc(F)cc3)CC2)CC1	-3.2	-5.9%	-2.3%	-0.5%
CCn1c(C)c(C2=CCN(S(=O)(=O)c3ccccc3)CC2)c2ccccc21	-0.5	u	-2.3%	u
CCN(CC)c1ccc(NC(=O)Nc2ccccc2C(F)(F)F)cc1	-3.2	0.5%	-44.4%	-3.2%
CCCCc1nnc(NC(=O)c2ccc(S(=O)(=O)N3CCOCC3)cc2)s1	x	-8.2%	x	-3.1%
COC(=O)CNC(=O)c1ccccc1	x	1.7%	x	1.3%
COC(=O)c1c(-c2ccco2)csc1NC(=O)C1CC=CCC1C(=O)O (stereo not drawn)	2.4	-19.8%	-19.4%	0.5%
COc1ccc(Br)cc1S(=O)(=O)NCCN1CCOCC1	3.6	-4.2%	-0.2%	-0.1%
Cc1ccc2nc(SCC(=O)Nc3cc(C)on3)c(C)cc2c1	x	-4.5%	2.1%	-3.4%
CN(C)CCNc1nc2c(c(=O)[nH]c(=O)n2C)n1CC(O)COc1ccc(Cl)cc1 (stereo not drawn)	1.6	-5.3%	1.3%	-2.9%
CCCC(C)C(=O)Nc1ccncc1 (stereo not drawn)	-6.3	-7.8%	1.2%	-2.5%
CCOC(=O)C1CCN(S(=O)(=O)c2ccc(C(=O)OC)cc2)CC1	11.1	11.6%	-3.0%	-0.4%
O=C(CNC(=S)N(Cc1ccc(F)cc1)C1CCCCC1)NC1CC1	-7.8	-10.3%	-0.5%	4.9%
CC(Sc1nc2ccccc2s1)C(=O)NC1CCCc2ccccc21 (stereo not drawn)	6.5	-19.5%	11.0%	13.0%
Fc1ccc(NC(=S)NCc2ccc3c(c2)OCO3)cc1	-1.3	-10.1%	-1.8%	0.4%
Cc1cc(C)cc(C(=O)N2CC(=O)Nc3ccccc32)c1	7.2	15.0%	21.2%	-0.7%
Cc1cccc(C)c1N(C(=O)c1ccco1)C(C(=O)NC1CCCC1)c1ccncc1 (stereo not drawn)	x	6.4%	0.3%	-1.1%
COc1ccc(N2CCN(C(CNC(=O)CC(C)(C)C)c3ccc4c(c3)OCO4)CC2)cc1 (stereo not drawn)	x	-12.3%	-0.4%	-0.9%
O=C(O)CN1CCN(CC(=O)O)CCN(CC(=O)O)CCN(CC(=O)O)CC1	x	-2.1%	x	10.7%
COc1ccc(C(CNC(=O)C(C)Oc2ccc(Br)cc2)N2CCOCC2)cc1 (stereo not drawn)	x	14.1%	x	-2.8%
O=C(CN1C(=O)NC2(CCCC2)C1=O)OCc1ccccc1F	x	-22.7%	x	-1.2%
O=C(Nc1nccc(-c2cccs2)n1)c1ccccc1Cl	-5.4	-2.3%	-34.0%	-4.2%
Cc1noc(C)c1C(=O)OCC(=O)N(C)C1(C#N)CCCCC1	x	-16.9%	x	-1.0%
CCC(C)N(C(=O)Cn1nnc(-c2ccc(Cl)cc2)n1)C1CCS(=O)(=O)C1 (stereo not drawn)	x	9.5%	x	2.7%
COc1ccc(Cl)c(NC(=O)Nc2c(C)n(-c3ccccc3)c(=O)n2C)c1	4.7	5.7%	1.4%	2.2%

# Fetched by compound from above, 2 records:
Structure	GLA inh pH 4.5	Rango dissoc inh	miR-21 FLuc	Rango-impB inh
Cc1noc(C)c1C(=O)OCC(=O)N(C)C1(C#N)CCCCC1	x	-16.9%	x	-1.0%
O=C(CN1C(=O)NC2(CCCC2)C1=O)OCc1ccccc1F	x	-22.7%	x	-1.2%

# Next entries:
Structure	GLA inh pH 4.5	Rango dissoc inh	miR-21 FLuc	Rango-impB inh
CSC(=S)N(C)C1CCS(=O)(=O)C1 (stereo not drawn)	7.2	4.1%	2.2%	-0.6%
CC(C)(CCl)C(=O)Nc1ccc(C(F)(F)F)cc1	1.0	-8.5%	0.2%	1.7%
CCc1cc2c(=O)[nH]c(N3CCOCC3)nc2s1	2.3	-0.7%	-35.3%	-1.9%
CCCCNS(=O)(=O)c1ccc2nc(-c3cccs3)cc(C(=O)NCC(OC)OC)c2c1	u	x	4.9%	x
Cc1cc(Br)ccc1OCCCCNCCO	-1.6	15.2%	-13.0%	5.2%
COc1ccc(-c2cc(C(F)(F)F)n3nc(C(=O)NCCCN4CCOCC4)cc3n2)cc1	7.1	0.4%	-2.1%	-4.2%
Cc1c(Cl)cc(C(C)C)c(O)c1CN1CCOCC1	x	1.9%	x	0.6%
COc1ccc(COC(=O)CCS(=O)(=O)c2ccc(C)cc2)cc1	x	4.9%	x	-2.1%
CCN1CSC(=S)N(Cc2ccccc2)C1	x	7.5%	-3.6%	1.1%
CN1C(=O)c2ccc(C(=O)Nc3ccccc3O)cc2C1=O	x	21.6%	-0.4%	-4.7%
O=[N+]([O-])c1ccccc1NCCNc1ncc(C(F)(F)F)cc1Cl	-4.4	-30.0%	-32.3%	6.4%
C(=N\N1CCN(C2c3ccccc3-c3ccccc32)CC1)/c1ccncc1	-6.5	16.2%	-6.4%	u
C/C(=N\NC(=O)c1ccc(-c2ccccc2)cc1)C1C(=O)c2ccccc2C1=O	-1.6	0.1%	23.0%	3.7%
C/C(=N\NC(=S)NCCc1ccccc1)c1ccc(Cl)cc1Cl	x	0.4%	9.1%	1.4%
CCOc1ccc(NC(=O)CSc2nc3ccccc3c(=O)n2CCCC(=O)NCCCN2CCCC2=O)cc1	-0.9	-1.3%	-0.6%	-1.5%
COc1ccccc1N1CCN(C(=O)c2ccc(S(=O)(=O)N3CCCCC3)cc2)CC1	-4.2	-0.9%	1.4%	u
Cc1ccc(SCCn2nc(C(=O)O)c3ccccc3c2=O)cc1	-3.9	1.4%	-12.2%	-1.0%
CCC1(c2ccc(F)cc2)NC(=O)N(CC(=O)N2CCc3ccccc3C2)C1=O (stereo not drawn)	x	0.8%	x	u
CC(C(=O)Nc1sc2c(c1C(=O)NCc1ccco1)CCCC2)N1C(=O)c2ccccc2C1=O (stereo not drawn)	1.3	18.6%	-0.8%	2.8%
CCCC(=O)Nc1cccc(-c2nc3cc(C)c(C)cc3o2)c1	-4.9	-2.4%	-57.0%	-0.6%
COc1ccc(NC(=O)NCc2ccccn2)cc1OC	0.3	0.6%	-8.4%	1.0%
O=C(Nc1cc2c(oc1=O)CCCC2=O)c1ccc(Cl)cc1	-2.5	-6.5%	-18.5%	0.1%
Cc1cccc(NC(=O)CSCC(=O)Nc2ccccc2C(=O)NC2CC2)c1	x	-3.7%	x	-0.8%
O=C(CNC(=O)c1ccc(Br)o1)NCc1ccccc1	x	4.4%	-9.8%	3.1%
CCOC(=O)C[n+]1c(C)csc1C	7.5	1.0%	-13.8%	-2.7%
Nc1cccc(CCc2ccncc2)c1	x	-2.3%	-10.3%	-5.0%
O=C1NC2=C(C(=O)CCC2)C(c2ccc3ncccc3c2)N1 (stereo not drawn)	-3.0	18.0%	-3.2%	4.0%
Cn1c2ccc(Cl)cc2c2nc3ccccc3nc21	-2.0	u	-6.1%	u
O=C(c1ccccc1)c1c[nH]c(C(=O)NCCCN2CCOCC2)c1	5.0	-13.8%	-0.8%	-0.3%
COc1ccccc1C(=O)N1CCN(C2CCN(Cc3ccccc3)CC2)CC1	2.2	5.8%	-4.3%	5.7%
COc1ccc(CN(Cc2cccnc2)S(=O)(=O)c2ccc(-n3cnnn3)c(C)c2)cc1OC	4.8	-26.5%	1.0%	u
Cc1ccc(-c2cc(C(=O)N/N=C/c3ccc(Cl)cc3)n[nH]2)o1	x	-5.4%	0.5%	-0.6%
CSc1nnc(C)c(=O)n1COC(=O)COc1ccc(Cl)cc1	-3.0	7.8%	0.1%	-3.3%
O=C1c2ccccc2C(Nc2ccc3c(c2)OCCO3)N1Cc1ccccc1 (stereo not drawn)	-19.4	-5.2%	-5.1%	-2.6%
Cc1ccc(C)c(OCC(=O)Nc2nonc2NC(=O)COc2cc(C)ccc2C)c1	3.4	-0.7%	-7.3%	-4.3%
COc1cc(/C=C2\SC(=Nc3ccc(N4CCOCC4)cc3)N(C)C2=O)ccc1OC(C)C(=O)O (stereo not drawn)	-13.2	-4.6%	-7.5%	0.3%
COc1ccc(NC(=O)CO/N=C2/CCCc3nonc32)c(OC)c1	4.1	-4.1%	-3.2%	4.2%
Cc1ccccc1Nc1nc(N)nc(CSc2nnnn2-c2ccccc2)n1	-6.8	0.7%	-13.8%	u
Cc1ccc2nc(N3CCN(Cc4ccc(F)cc4)C3=O)c(C)cc2c1	2.0	21.2%	-18.2%	-4.7%
C=CCCC(=O)Nc1nc(C)c(-c2csc(Nc3ccccc3OC)n2)s1	-1.7	-10.3%	24.1%	0.9%
CC(CCC(C)C(C)(C)C)[C@@H]1CC[C@H]2C3C[C@H](OS(O)(=S)=S)[C@H]4C[C@H](OS(O)(=S)=S)[C@@H](OS(O)(=S)=S)C[C@]4(C)[C@H]3CC[C@]12C (stereo partly drawn) (tested in a mixture with another compound)	x	-2.8%	x	-0.5%
CCCc1ccc(S(=O)(=O)N(C)S(=O)(=O)c2ccc(F)cc2)cc1	x	-9.9%	4.7%	0.9%
O=C(N/N=C/c1cc2ccccc2[nH]1)c1ccccc1Cl	-2.3	-0.6%	-17.3%	-0.1%
O=C(NCC1CCCO1)c1cc2c([nH]c3ccccc32)c(-c2cccc(Br)c2)n1 (stereo not drawn)	x	0.3%	25.9%	-5.5%
NC(=S)N/N=C/c1coc2ccc(Br)cc2c1=O	-8.2	-11.6%	-1.4%	4.2%

# A portion of the library, so the mix of outcomes need not match the whole.
